gsp agonist: gsp mutant agonism | gsp mutant cells, cAMP HTRF, 30 min; control for the full effect not named in the record | Potency, µM (doses to about 76.9 µM), for inactives: at the top dose activation (cAMP increase), usual class: activators | hit rate 0.13% among 340,000 | AID 624287; active = well fitted activation curve with a large enough effect; inconclusive = small, poorly fitted or top-dose-only effect, or another doubt; inactive = no such curve, though single readings can be large or run the other way; cell line not stated here;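 also: phosphodiesterase inhibitor Ro 20-1724 added with compounds to block cAMP breakdown; potency is read from the fitted curve at half-maximal effect; nearly all actives have a fitted effect of over 60% in size; about a fifth of the inactives were tested at one dose only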
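Cells in DMEM/10% FBS with G418 were pretreated with compounds in DMSO plus […] (300 uM stock) for 30 min at 37C. cAMP was measured by HTRF (cAMP-d2 plus anti-cAMP antibody-K) after 30 min at room temperature.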
Menin MLL FP FL: displaces fluorescein MLL peptide from human menin | Fluorescence polarization, fluorescein-MLL peptide displacement from menin | FP activity change, % at 61.4 µM | 290,000 tested, under 10 active | AID 1766; inconclusive = falling polarisation curve, or a change in total fluorescence; inactive = total fluorescence flat and polarisation flat or rising; no compound was filed as active; the % refers to the polarisation; negative = inhibition;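 also: % of control where 0% means no effect; inhibitors lower the polarisation; unlabelled MLL peptide was the positive control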
gsp antag: antagonizes gsp, the McCune-Albright syndrome mutation. gsp-mutant cells, cAMP HTRF, 30 min; control for the full effect not named in the record. Potency, µM (top dose mostly 76.9 µM), for the others: top-dose activity change, negative = inhibition, most hits filed as inhibitors. hit rate 0.4% among 340,000. AID 624288; active = falling curve of any shape with a large fitted effect; inconclusive = falling curve, mostly with a smaller effect; inactive = flat or rising curve; cell line not stated here;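 also: intracellular cAMP measured with PDE inhibitor Ro 20-1724 present during compound exposure; potency is read from the fitted curve at half-maximal effect; % is scaled to controls: 0 for no effect and ±100 for the full control effect; nearly all actives have a fitted effect of over 65% in size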
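HTRF cAMP read-out (cAMP-d2 plus anti-cAMP antibody-K in lysis buffer, 30 min RT). Before lysis, cells are exposed to compounds with […] for 30 min at 37C in DPBS containing Ca/Mg, BSA and Tween 20.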
TRPML1 agonist: human mucolipin-1 channel agonism. Q9GZU1. TRPML1-expressing cells, Ca2+ dye fluorescence, FDSS; host cell line not named in the record; reference of the full effect not given here. activation, % (no concentration beside the values). hit rate 0.12% among 410,000; in the data active = activation above about 50%; inconclusive = about 30% to 50%; inactive = below about 30%; also: 0% is about no effect; the text of the record puts the active cut at 80%
Target sequence (Q9GZU1 whole entry, looked up): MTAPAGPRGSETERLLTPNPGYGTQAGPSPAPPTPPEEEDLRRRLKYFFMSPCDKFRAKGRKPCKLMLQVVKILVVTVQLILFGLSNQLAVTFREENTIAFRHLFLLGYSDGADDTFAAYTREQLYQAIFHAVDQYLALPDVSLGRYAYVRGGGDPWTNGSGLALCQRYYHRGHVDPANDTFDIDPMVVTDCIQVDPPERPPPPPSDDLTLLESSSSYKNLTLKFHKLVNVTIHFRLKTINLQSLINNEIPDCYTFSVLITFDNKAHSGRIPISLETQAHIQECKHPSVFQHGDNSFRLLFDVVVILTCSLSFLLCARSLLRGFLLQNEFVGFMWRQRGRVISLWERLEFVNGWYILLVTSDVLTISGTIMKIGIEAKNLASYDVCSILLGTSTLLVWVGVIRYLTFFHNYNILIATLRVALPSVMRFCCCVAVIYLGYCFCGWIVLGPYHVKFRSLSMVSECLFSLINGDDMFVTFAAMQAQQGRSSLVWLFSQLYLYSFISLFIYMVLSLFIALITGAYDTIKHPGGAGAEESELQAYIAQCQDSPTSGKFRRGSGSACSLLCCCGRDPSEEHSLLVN
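In this qHTS format, compounds were pin-transferred onto Ca8-dye-loaded TRPML1-DL cells induced with Tet overnight, and intracellular Ca2+ fluorescence was recorded kinetically for 110 s after a 10 s baseline. A subsequent 4uM final 54-4 (EC80) addition followed by a second 110 s read served as the antagonist phase.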
ClpP mod: qHTS Assay for Activators of ClpP | ATP-dependent Clp protease proteolytic subunit (Bacillus subtilis (strain 168)), P80244 | Potency, µM (titrated, usually from 57.5 µM), for the others: at the highest dose activity change, negative = active | AID 651965, 2013 | purified B. subtilis ClpP, FRET peptide cleavage, 20 min | hit rate 1.9% among 340,000; active = well fitted falling curve with a large enough effect; inconclusive = small, poorly fitted or top-dose-only effect; inactive = no such curve, though single readings can be large or run the other way; also: potency is read from the fitted curve at half-maximal effect; the source files actives as falling curves though it sought activators and does not explain the sign; nearly all actives have a fitted effect of over 65% in size; many hits overshoot -100%
Target sequence (P80244 whole entry, looked up): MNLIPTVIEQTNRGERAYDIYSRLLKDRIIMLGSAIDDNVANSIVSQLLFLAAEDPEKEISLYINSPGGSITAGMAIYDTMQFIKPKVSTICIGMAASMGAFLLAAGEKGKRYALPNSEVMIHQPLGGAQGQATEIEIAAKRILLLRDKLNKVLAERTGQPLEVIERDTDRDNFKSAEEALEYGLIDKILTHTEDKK
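ClpP 10 microg/mL final, pH 8 Tris/KCl buffer with BSA, glycerol, Tween-20; compound pinned in; FRET-FV substrate; RT 20 min; Ex320/Em430; ΔFRET vs ADEP 5.8 microM, DMSO, no enzyme.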
TRPML1 blocker: blocks the human TRPML1 channel; Q9GZU1; activity change, negative = inhibition, % (concentration not given with the values); hit rate 0.02% among 390,000; TRPML1-inducible cells, Ca2+ dye fluorescence, FDSS; hits give low values; inhibition of EC80 agonist-evoked calcium signal; in the data active means activity change below about -50%; inconclusive means about -30% to -50%; inactive means above about -30%;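 also: stimulus is agonist 54-4 at its EC80 concentration; % is scaled to controls: 0 for no effect and ±100 for the full control effect; compound concentration not given in the record; the text of the record puts the active cut at -80%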
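Calcium fluorescence in TRPML1-DL cells induced overnight with Tet: a 110 s read after compound pin addition, then a 110 s antagonist read after challenge with 54-4 at 4 uM final (EC80).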
* = called active by the depositor; ? = inconclusive; / = not tested or not shown; [ ] = another dose, or the depositor's remark. Compounds as they come, and some 2.1% of all compounds hit somewhere here.

SMILES	TRPML1 agonist	ClpP mod	gsp antag	Menin MLL FP FL	gsp agonist	TRPML1 blocker
COc1cc(CN2CCN(Cc3ccc(C(F)(F)F)cc3)CC2)cc(OC)c1OC	/	0.2%	-8%	-0.1	-7%	/
COc1cc(/C=C2\SC(=S)N(N3CCOCC3)C2=O)cc(OC)c1OC	-0.4	0.7%	-3%	-1.2	-4%	5
CC(=O)c1cccc(NC(=O)c2cc(-c3ccc(F)cc3)on2)c1	0.1	0.6%	11%	0.0	-5%	-16
O=S(=O)(Oc1ccccc1/C=N/n1cnnc1)c1ccccc1	-0.2	/	8%	-1.0	-7%[15.4 µM]	-11
NC(=O)C1CCN(C(=O)Cc2ccc([N+](=O)[O-])cc2)CC1	-0.3	-3.0%	8%	-1.5	-7%	-9
COC(=O)c1c(NC(=O)C(=O)N2CCCCC2)sc2c1CC(C)(C)OC2	-0.5	2.5%	1%	-6.0	41%	-19
Cc1cc(O)c(-c2cc(C(=O)Nc3cccnc3)[nH]n2)cc1C	0.3	0.2%	-5%	-1.1	-20%	-2
O=C(Nc1cccnc1Cl)c1cc(-c2ccccc2O)on1	0.6	/	14%	?	7%	2
COc1ccc(-c2nc(C)ncc2-c2csc(C)n2)c(O)c1	1.3	0.0%	10%	0.7	-44%[inhibitor]	-8
Cc1ccc(COC(=O)CCN=C2NS(=O)(=O)c3ccccc32)cc1	-0.8	1.5%	1%	/	2%	4
COc1cc(/C=N/NC(=O)COc2c(C)cc([N+](=O)[O-])cc2C)ccc1OC(=O)c1ccccc1Br	0.1	1.4%	12%	0.5	-57%[inhibitor]	6
CS(=O)(=O)N(CC(=O)N1CCN(c2ccccc2)CC1)C1CCCCC1	-0.4	-1.9%	-18%	-0.1	-5%	-1
COc1ccc(/C=N/NC(=O)c2ccoc2C)cc1OC	-0.2	-1.6%	-2%	3.0	-40%	-2
C#CCN1[C@@H]2CCN(C2)c2cc(Br)ccc2S1(=O)=O	-1.2	0.7%	-10%	/	/	-8
CCCOc1cc(C)c(S(=O)(=O)n2ccc(C)n2)cc1C	2.1	1.7%	16%	2.1	-27%	1
COc1cc(OC)c(NC(=O)c2ccc(Br)o2)cc1Cl	0.9	-2.3%	?	3.1	-2%	-5
CC(C)NC(=O)CSc1ncccc1-c1nc2ccccc2[nH]1	-0.4	-22%	-2%	1.5	-4%	19
Cc1ccc(C)c(NC(=O)NNC(=O)c2ccc3ccccc3c2O)c1	0.9	3.2%	-1%	2.9	2%	16
COc1cccc(N2CCN(S(=O)(=O)c3ccc4c(c3)NC(=O)CS4)CC2)c1	1.9	1.4%	5%	/	?	1
Cc1cc(C(=O)COc2cccnc2[N+](=O)[O-])c(C)n1Cc1cccs1	-0.5	-1.0%	-26%	-1.2	-6%[15.4 µM]	-5
CC(C)CCOc1ccc(Cn2c(=O)sc3ccccc32)cc1	2.0	-2.0%	/	/	/	-8
COc1cccc(CSc2nccn2C)c1	-0.8	-1.9%	6%	0.0	-2%	-17
Cc1ccc(NC(NC(=O)c2cccs2)C(Cl)(Cl)Cl)cc1 (configuration not stated)	1.2	-1.9%	-18%	0.7	-8%	-8
Cc1cc(C2=NNC(=NC3CCCCC3)SC2)c(C)n1-c1c(C)n(C)n(-c2ccccc2)c1=O	-0.3	2.0%	-15%	1.8	26%	12
CCC(C)Sc1nnc(CNS(=O)(=O)c2ccc(F)cc2)n1C (configuration not stated)	0.1	0.1%	17%	/	8%	7
Cc1ccc(NC2=NC(c3ccc(O)cc3)n3c(nc(C)cc3=O)N2)cc1 (configuration not stated)	-0.1	-2.5%	5%	2.6	-3%	3
CCN(CC)S(=O)(=O)c1cccc(C(=O)Nc2ccccc2C(=O)N2CCOCC2)c1	-0.1	-0.2%	9%	7.7	-8%	5
COc1ccccc1-c1nnc(NC(=O)c2ccc(S(=O)(=O)N(C)CC3CCCO3)cc2)o1 (configuration not stated)	0.3	-1.2%	-25%	-1.9	-2%	0
COc1ccc(CNC(=O)C(=O)NCC(c2ccco2)N2CCOCC2)cc1 (configuration not stated)	0.4	-0.8%	12%	-2.0	4%	6
Cc1ccc(NC(=O)c2ccco2)c(NC(=O)c2cccs2)c1	0.6	-0.5%	1%	3.8	-68%[inhibitor]	-2
COc1cccc(-n2c(N)cc(=O)nc2SCC(=O)N2CCN(c3ccccc3)CC2)c1	1.1	-0.1%	0%	/	-24%	-16
COc1ccc(C(=O)N2CCN(c3ccc(NC(=O)c4cccs4)cc3)CC2)cc1	0.9	-2.3%	-22%	-0.2	-1%	3
CCOC(=O)CSc1nnc(COc2cccc(C)c2)o1	0.0	/	6%	-2.9	-13%	-8
CCC(C)Sc1ccc([C@H]2N[C@@](C)(C(=O)OC)[C@H]3C(=O)N(C)C(=O)[C@@H]23)cc1OC (some centres not stated)	-0.2	-4.5%	5%	/	?	-3
Cc1ccc(S(=O)(=O)CCc2nc3ccccc3[nH]2)cc1	0.0	1.1%	-12%	1.7	0%[15.4 µM]	13
O=C(c1cccnc1)N1CCN(S(=O)(=O)c2ccc(S(=O)(=O)N3CCCC3)cc2)CC1	-0.4	-2.6%	-4%	6.6	-53%[inhibitor]	-11
CCn1c(Cc2cccn2C)nnc1SCC(=O)c1ccc(C)cc1	-0.6	-7.2%	-15%	3.4	-2%	15
CSc1c(CC(=O)Nc2ccccc2C(F)(F)F)n(Cc2ccccc2)c2ccccc12	2.8	14%	-1%	0.9	19%	1
CCN1CCN(CC(=O)Nc2ccc(Cl)c(S(=O)(=O)N(C)C)c2)CC1	-0.8	2.2%	?	0.4	-37%	6
Cc1nn(-c2ccccc2)c(Cl)c1C(=O)OCC(=O)NCCc1ccc(S(N)(=O)=O)cc1	-0.1	1.5%	-12%	/	13%	7

Ordered by value in Menin MLL FP FL (low to high): 5 of the compounds above
compound	Menin MLL FP FL
COc1ccccc1-c1nnc(NC(=O)c2ccc(S(=O)(=O)N(C)CC3CCCO3)cc2)o1 (configuration not stated)	-1.9
COc1cc(CN2CCN(Cc3ccc(C(F)(F)F)cc3)CC2)cc(OC)c1OC	-0.1
CC(C)NC(=O)CSc1ncccc1-c1nc2ccccc2[nH]1	1.5
CCCOc1cc(C)c(S(=O)(=O)n2ccc(C)n2)cc1C	2.1
COc1ccc(/C=N/NC(=O)c2ccoc2C)cc1OC	3.0

(cont.)
SMILES	TRPML1 agonist	ClpP mod	gsp antag	Menin MLL FP FL	gsp agonist	TRPML1 blocker
COCCNC(=O)/C(C#N)=C/c1ccc(C)o1	2.6	/	11%	-3.0	-14%[15.4 µM]	3
COC(=O)Cn1c(O)c(N=NC(=O)c2ccc3c(c2)OCO3)c2ccccc21	0.4	-2.6%	2%	-2.6	?	-8
S=c1sc(SCCOc2ccccc2)nn1-c1ccccc1	3.8	-1.5%	-6%	4.9	16%	7
COc1ccc(NC(=O)CCc2nc(-c3ccc(C)cc3)no2)c(OC)c1	2.3	-14%	-13%	-1.3	-22%	-7
Cc1ccc(NC(=O)CNc2ccccc2CN(C)C2CCCCC2)cc1	1.5	-2.0%	2%	-1.9	2%	32
CN(c1ccc(C(=O)NC2CCCC2)cc1)S(=O)(=O)c1ccccc1	1.0	/	0%	0.0	1%	18
COC(=O)CSC1=C(C#N)C(=O)NC2(CCCCC2)S1	-0.6	/	3%	-1.7	-8%[15.4 µM]	-19
CCc1ccccc1NC(=O)CSC1=C(C#N)C(c2ccc3c(c2)OCO3)C2=C(CCCC2=O)N1 (configuration not stated)	1.3	-2.5%	?	-3.3	1%	47
O=C(NC1=NCCS1)NC12CC3CC(CC(C3)C1)C2	1.0	0.5%	-3%	0.1	-36%[inhibitor]	9
COc1ccc(S(=O)(=O)N2CCC(C(=O)NCCc3ccccc3)CC2)cc1	-0.7	0.2%	11%	7.8	?	-1
CC(C)(CNC(=O)c1cccs1)CNC(=O)c1cccs1	1.2	-4.0%	-19%	-0.2	5%	0
O=C(O)/C(=C\c1ccccc1)c1ccc2ccccc2c1	2.3	-5.5%	-2%	/	-6%	13
CC(=O)c1c(C)[nH]c(C(=O)N2CCc3ccccc3C2)c1C	2.6	-2.1%	-3%	3.0	-8%	-9
COc1cccc(-c2cc(C(=O)NCCN3CCOCC3)no2)c1	0.5	-3.1%	9%	8.7	-39%[inhibitor]	-4
O=C(NN=Cc1c(O)ccc2ccccc12)c1ccncc1	?	-1.2%	-12%	/	18%	-5
Cc1cccc(-c2cc(NC(=O)c3ccccc3C)n(-c3ccccc3)n2)c1	0.5	-0.4%	/	/	/	-24
COc1ccc(CCNS(=O)(=O)c2ccc(Br)cc2)cc1OC	1.8	-2.1%	7%	-1.6	1%	-12
CN1CCN(S(=O)(=O)c2ccc3c(c2)CC(=O)N3C)CC1	0.2	0.7%	8%	/	35%	20

In the list so far, 4 contain fluorine:
SMILES	TRPML1 agonist	ClpP mod	gsp antag	Menin MLL FP FL	gsp agonist	TRPML1 blocker
COc1cc(CN2CCN(Cc3ccc(C(F)(F)F)cc3)CC2)cc(OC)c1OC	/	0.2%	-8%	-0.1	-7%	/
CC(=O)c1cccc(NC(=O)c2cc(-c3ccc(F)cc3)on2)c1	0.1	0.6%	11%	0.0	-5%	-16
CCC(C)Sc1nnc(CNS(=O)(=O)c2ccc(F)cc2)n1C (configuration not stated)	0.1	0.1%	17%	/	8%	7
CSc1c(CC(=O)Nc2ccccc2C(F)(F)F)n(Cc2ccccc2)c2ccccc12	2.8	14%	-1%	0.9	19%	1

Bioassay records deposited in PubChem BioAssay by National Center for Advancing Translational Sciences (NCATS).
